Screening data: PubChem, several laboratories
ALR H2O2 inh = inhibitors of human ALR sulfhydryl oxidase, primary screen, biochemical, H2O2 detection, HRP-luminol luminescence, single point; FAD-linked sulfhydryl oxidase ALR (Homo sapiens), P55789; purified ALR, DTT oxidation; inhibition, % (no concentration beside the values); 290,000 compounds, 3.8% hits; AID 485317, 2010;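 active = mean and each replicate at 75% or more; inconclusive = only one of the two met; inactive = neither met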;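 note: stock transfer was 7.5 nL into about 7.5 µL; 0% = neutral wells and 100% = wells with inactivated enzyme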
FGF22 binding = binders of human FGF22 protein, primary screen, FGF22 synaptogenesis inhibitor project, biophysical, thermal shift, single point | Fibroblast growth factor 22 (Homo sapiens), Q9HCT0 | recombinant FGF22 thermal shift, SYPRO orange fluorescence; percent of sucrose octasulfate shift, DMSO zero | calls only at 9.99 µM | 340,000 compounds, 1.5% hits;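 active = melting point raised past a set limit in the mean and every replicate; inconclusive = no clear call; three in four hits are not shown here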
Target sequence (Q9HCT0 whole entry, looked up): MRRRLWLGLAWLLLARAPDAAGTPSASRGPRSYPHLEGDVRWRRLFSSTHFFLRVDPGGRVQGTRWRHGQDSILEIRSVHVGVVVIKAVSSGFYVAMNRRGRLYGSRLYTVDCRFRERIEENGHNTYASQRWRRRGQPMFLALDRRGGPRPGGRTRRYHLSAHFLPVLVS
B2AR ag = beta2AR agonists driving receptor internalization, primary screen, cell-based, FAP fluorogen, flow cytometry. 340,000 compounds, 0.43% hits. response, % (concentration not given with the values). Beta-2 adrenergic receptor (Homo sapiens), P07550. Am2.2-beta2AR cells; reference of the scale not given here;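 active = response above a set limit, near 3 SD of response in nonfluorescent compounds, cut at about 42% in these data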;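 note: stock transfer was 100 nL into about 11 µL; a reference agonist was the positive control; negative values mostly stem from fluorescent compounds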
Target sequence (P07550 whole entry, looked up): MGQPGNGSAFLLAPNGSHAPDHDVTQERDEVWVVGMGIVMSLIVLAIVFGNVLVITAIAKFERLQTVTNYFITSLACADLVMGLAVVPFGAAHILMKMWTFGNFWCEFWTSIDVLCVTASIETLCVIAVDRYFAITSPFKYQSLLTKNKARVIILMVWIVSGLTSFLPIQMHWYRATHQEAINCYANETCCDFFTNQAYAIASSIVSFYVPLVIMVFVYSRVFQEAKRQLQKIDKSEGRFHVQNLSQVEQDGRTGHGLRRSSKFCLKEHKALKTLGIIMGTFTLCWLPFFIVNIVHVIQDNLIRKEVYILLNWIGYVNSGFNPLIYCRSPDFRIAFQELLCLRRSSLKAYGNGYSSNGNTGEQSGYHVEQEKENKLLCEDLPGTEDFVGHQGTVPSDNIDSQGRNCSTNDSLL
Ecoli growth = E. coli growth inhibition, primary screen, OD600 | Escherichia coli growth, 23 h; stronger effect = lower value | OD600 absorbance (test concentration not listed) | 330,000 compounds, 0.21% hits | AID 1053175, 2014;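 active = OD600 absorbance below the run mean of sample wells minus 3.6 SD, in any replicate, cut at about 0.56 in these data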;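 note: stock transfer was 300 nL into about 60 µL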
UCH37 inh = inhibitors of human UCH37 deubiquitinase, primary screen, biochemical, Ub-AMC cleavage, fluorescence; Ubiquitin carboxyl-terminal hydrolase isozyme L5 (Homo sapiens), Q9Y5K5; purified proteasome/UCH37; inhibition, % (no concentration beside the values); 330,000 compounds, 0.33% hits;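 active = mean of two replicates above 20%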;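 note: 0% = compound-free wells with enzyme and 100% = wells lacking proteasome; stock transfer was 100 nL into about 20 µL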
Target sequence (Q9Y5K5 whole entry, looked up): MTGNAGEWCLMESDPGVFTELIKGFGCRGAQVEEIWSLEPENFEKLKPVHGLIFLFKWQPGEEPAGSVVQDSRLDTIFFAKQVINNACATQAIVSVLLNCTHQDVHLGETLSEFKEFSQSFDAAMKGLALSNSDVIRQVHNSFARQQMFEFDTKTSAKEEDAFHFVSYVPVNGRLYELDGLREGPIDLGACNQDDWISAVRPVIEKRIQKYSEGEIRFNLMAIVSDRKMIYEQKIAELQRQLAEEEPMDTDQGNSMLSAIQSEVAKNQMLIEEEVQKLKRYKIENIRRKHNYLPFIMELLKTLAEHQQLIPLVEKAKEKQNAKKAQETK
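Test system – human UCH37 enzyme supplied as purified proteasome complex · Incubation – 30 min preincubation with enzyme, 25 min cleavage at room temperature · Detection – AMC fluorescence from Ub-AMC cleavage, excitation 355 nm, emission 460 nm · Benchmarks – no-proteasome wells (full inhibition) and compound-free wells (no inhibition)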
HNF4A DNA FP = change in binding of human HNF4A to DNA, primary screen, biochemical, fluorescence polarization, FITC-DNA; Hepatocyte nuclear factor 4-alpha (Homo sapiens), P41235; 1 h; activity change, % at 10 µM; 360,000 compounds, 0.3% hits; AID 1224865, 2016; in the data active = activity change above about 30%, passing the limit was not always enough;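 note: controls were the assay level and a saturating level of protein; the project sought stronger binding though the title names inhibitors; some compounds called inactive have numbers as strong as hits; positive values seem to mean higher polarization but the record does not say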
Ecoli rRNA inh = reduced GFP signal of wild-type E. coli, primary screen, bacterial rRNA inhibitor project, GFP/RFP fluorescence, OD600, single point; E. coli WT GFP vs humanized-ribosome RFP mutants, 24 h; stronger effect = lower value; DMSO median 0, no signal -100; GFP signal change (wild-type ribosome), % (no concentration beside the values); 350,000 compounds, 1.6% hits; AID 720706, 2013;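 active = significant combined selectivity score with lowered wild-type GFP, culture density cut under 30%, mutant RFP and density less affected; inactive = any of these conditions unmet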; note: one replicate is shown; some compounds called inactive have numbers as strong as hits
Ecoli rRNA inh OD600 = second read-out of Ecoli rRNA inh, no call of its own (marks repeat the call); OD600 change, %; measured here: OD600 growth;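 optical density of the mix in the first replicate; 0 = DMSO median and -100 = no signal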
Ecoli rRNA inh RFP = recorded beside Ecoli rRNA inh, whose call it bears; RFP signal change, %; measured here: RFP humanized mutant strains;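 first replicate; 0 = DMSO median and -100 = no signal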
* = called active by the depositor; i = inactive; u = inconclusive; x = not tested or not shown; & = joins results of further samples. Not all compounds are listed, so the mix of outcomes need not match the whole.

1. CC(=O)N1Cc2cc(N)ccc2Oc2ccccc21
2. C=CCNC(=O)c1cnn(-c2ccccc2)c1-c1ccccc1
3. C/C(CC(=O)Nc1ccc(Cl)cc1)=N\NC(=O)C(=O)NCCO
4. Cc1occc1C(=O)Nc1nnc(-c2cccs2)s1
5. COc1ccc(CCn2ccc(O)c(Cc3ccc(Cl)cc3)c2=O)cc1OC
6. O=C(CSc1nc(-c2ccccc2)cc(=O)[nH]1)N1CCc2ccccc21
7. Cc1ccc(CN2C(=O)CSC2c2ccccc2F)cc1 (configuration not stated)
8. C=CCN(c1ccccc1OC)S(=O)(=O)c1cccc(C(=O)NCC(c2ccc(OC)cc2)N2CCCC2)c1 (configuration not stated)
screen / no.,1,2,3,4,5,6,7,8
ALR H2O2 inh,89*,15,96*,u,-5,1,-8,x
FGF22 binding,x,i,x,i,i,x,i,i
B2AR ag,5,-25,5,-11,-49,-5,0,14
Ecoli growth,0.68,0.68,x,0.75,0.71,0.71,0.65,0.65
UCH37 inh,6.6,2.2,x,-20,7.9,-1.5,0.7,-0.7
HNF4A DNA FP,-1.8,0.1,-0.8,-0.9,2.7,2.4,-2.0,9.8
Ecoli rRNA inh,5,7,x,14,-29*,x,-15,-18
Ecoli rRNA inh OD600,13,2,x,11,-13*,x,-47,-12
Ecoli rRNA inh RFP,0.9,-1.2,x,1.3,-2.4*,x,-4.9,8.2

9. CSCCC(NC(=O)COc1ccccc1)C(=O)N(C)Cc1ccc(F)cc1 (configuration not stated)
10. O=C(Nc1cccc(Br)c1)c1ccn[nH]1
11. O=[N+]([O-])c1ccc(Cl)c2cccnc12
12. COc1ccc(OC)c(S(=O)(=O)NCc2ccccn2)c1
13. Cc1ccc(C(=O)NCC(=O)OCC(=O)c2c(N)n(C)c(=O)n(C)c2=O)s1
14. O=C(N/N=C/c1cccnc1)C12CC3CC(CC(C3)C1)C2
15. CC(C)=CCCC(C)=CCN1C(=O)CN(C)C1=O
16. O=C1C2CC=C(Cl)CC2C(=O)N1CCCCCCN1C(=O)C2CC=C(Cl)CC2C1=O (configuration not stated)
screen / no.,9,10,11,12,13,14,15,16
ALR H2O2 inh,x,21,-24,-5,-3,1,x,0
FGF22 binding,i,x,i,i,x,i,i,x
B2AR ag,-1,-1,9,-1,-1,-2,x,8
Ecoli growth,0.67,0.71,0.63,0.7,0.74,x,x,0.62
UCH37 inh,4.6,1.3,5.0,3.0,-1.0,x,x,2.7
HNF4A DNA FP,0.0,0.3,1.3,2.5,-3.7,-1.7,4.4,-19
Ecoli rRNA inh,x,x,13,13,x,10,-1,x
Ecoli rRNA inh OD600,x,x,6,-3,x,6,-2,x
Ecoli rRNA inh RFP,x,x,-1.3,1.2,x,-3.9,3.8,x

17. CCc1nnc(NC(=O)c2ccc(COc3ccccc3C)o2)s1
18. COc1ccc(OC)c(C(=O)Cn2nnc3ccccc3c2=O)c1
19. CCCc1ccc(C(=O)COC(=O)CN2C(=O)NC3(CCCCC3C)C2=O)cc1 (configuration not stated)
20. CC(=O)N(c1ccc(C(F)(F)F)cc1)S(=O)(=O)c1ccc(N2C(=O)CCC2=O)cc1
21. COc1cccc(/C=C/c2ccc3cccc(O)c3n2)c1
22. CC(=O)c1cccc(OCC(=O)Nc2ccccc2N2CCOCC2)c1
23. COc1ccc(CCNC(=O)CN(c2ccc(OC)c(OC)c2)S(C)(=O)=O)cc1OC
24. CC1CCN(C(=S)NC(=O)c2ccccc2)CC1
screen / no.,17,18,19,20,21,22,23,24
ALR H2O2 inh,-12,6,-2,x,-13,x,-10,-7
FGF22 binding,i,x,i,i,i,i,x,x
B2AR ag,1,-5,-9,0,13,9,-2,13
Ecoli growth,0.63,0.66,0.61,0.7,0.68,0.64,0.7,0.72
UCH37 inh,3.3,-4.4,0.7,1.8,7.1,-2.5,5.1,2.4
HNF4A DNA FP,0.9,-0.8,4.8,-1.5,3.4,-0.7,-1.6,1.1
Ecoli rRNA inh,10,x,x,2,-51,x,x,x
Ecoli rRNA inh OD600,14,x,x,1,-68,x,x,x
Ecoli rRNA inh RFP,2.5,x,x,-3.4,-16,x,x,x

A draw from above in order of SMILES length, low to high.
1. CC(=O)N1Cc2cc(N)ccc2Oc2ccccc21
22. CC(=O)c1cccc(OCC(=O)Nc2ccccc2N2CCOCC2)c1
9. CSCCC(NC(=O)COc1ccccc1)C(=O)N(C)Cc1ccc(F)cc1 (configuration not stated)
screen / no.,1,22,9
ALR H2O2 inh,89*,x,x
FGF22 binding,x,i,i
B2AR ag,5,9,-1
Ecoli growth,0.68,0.64,0.67
UCH37 inh,6.6,-2.5,4.6
HNF4A DNA FP,-1.8,-0.7,0.0
Ecoli rRNA inh,5,x,x
Ecoli rRNA inh OD600,13,x,x
Ecoli rRNA inh RFP,0.9,x,x

Back to the main list with the four entries that preceded the break.
21. COc1cccc(/C=C/c2ccc3cccc(O)c3n2)c1
22. CC(=O)c1cccc(OCC(=O)Nc2ccccc2N2CCOCC2)c1
23. COc1ccc(CCNC(=O)CN(c2ccc(OC)c(OC)c2)S(C)(=O)=O)cc1OC
24. CC1CCN(C(=S)NC(=O)c2ccccc2)CC1
25. COc1ccc(C(=O)NNC(=S)NC(=O)c2ccc(Cl)cc2)cc1
26. C[C@@H](NC(=O)[C@@H]1Cc2ccccc2CN1)C(=O)Nc1ccc2c(c1)OCO2
27. COc1cc(C)c(C(C)C)cc1S(=O)(=O)n1cnc(C)c1
28. COC(=O)C(N)Cc1ccc(O)c(O)c1 (configuration not stated)
29. CCCCN(CC)Cc1ccc(CNC(=S)Nc2ccc(C)cc2Cl)o1
30. CCOC(=O)c1csc(-c2sccc2Br)n1
31. Cc1ccccc1-c1nnc(SCC(=O)c2c(N)n(C3CC3)c(=O)[nH]c2=O)o1
32. O=C(CSc1nnc(SCc2ccc(Cl)cc2)s1)N1CCOCC1
screen / no.,21,22,23,24,25,26,27,28,29,30,31,32
ALR H2O2 inh,-13,x,-10,-7,-20,x,-10,99*,-3,x,3,0
FGF22 binding,i,i,x,x,i,i,i,x,i,i,i,x
B2AR ag,13,9,-2,13,-1,-8,18,1,2,6,-6,-4
Ecoli growth,0.68,0.64,0.7,0.72,0.65,0.69,0.7,0.68&0.66,0.63,0.64,0.71,0.75
UCH37 inh,7.1,-2.5,5.1,2.4,4.1,-0.1,7.1,-0.1,1.3,4.0,2.6,3.4
HNF4A DNA FP,3.4,-0.7,-1.6,1.1,x,1.2,1.2,2.2,5.3,3.1,0.6,3.6
Ecoli rRNA inh,-51,x,x,x,-40,8,4,x,5,-27*,3,x
Ecoli rRNA inh OD600,-68,x,x,x,-36,2,8,x,6,-17*,12,x
Ecoli rRNA inh RFP,-16,x,x,x,-9.7,0.9,-1.4,x,0.8,-2.0*,-0.5,x

33. NC1=NC(=O)C2(COC(c3cccnc3)OC2)S1 (configuration not stated)
34. COc1ccccc1CNC(=O)C1CC2Cn3c(nc4ccccc43)C2N1C (configuration not stated)
35. CCc1nnc(NC(=O)CSc2nc(C)cs2)s1
36. Cc1ccc(N(C(=O)c2csnn2)C(C(=O)NC2CCCC2)c2cccnc2)c(C)c1 (configuration not stated)
37. COc1cccc(C(=O)NC(C)CCc2ccccc2)c1 (configuration not stated)
38. O=C(NCC(=O)N(CCN1CCOCC1)C(C(=O)NC1CCCC1)c1cccnc1)c1cccs1 (configuration not stated)
39. Cc1ccc(S(=O)(=O)CC(=O)N2CCCC2)cc1
40. O=C(CSc1nc2ccc(Cl)cc2[nH]1)NCc1ccco1
screen / no.,33,34,35,36,37,38,39,40
ALR H2O2 inh,-37,x,42,1,-2,-6,-11,36
FGF22 binding,i,i,i,i,i,x,x,x
B2AR ag,3,-3,1,5,5,-9,-1,2
Ecoli growth,0.63,0.66,0.67,0.63,0.7,0.72,0.67,x
UCH37 inh,6.2,1.2,0.2,1.8,3.3,2.4,1.3,x
HNF4A DNA FP,3.9,4.1,-0.3,2.1,-2.1,0.0,2.7,2.8
Ecoli rRNA inh,20,3,3,3,13,x,x,x
Ecoli rRNA inh OD600,23,7,3,1,11,x,x,x
Ecoli rRNA inh RFP,-0.2,-0.4,2.1,-1.2,1.8,x,x,x

41. Cc1cccc(/N=C/c2c(O)n(Cc3ccc4c(c3)OCO4)c(=O)c3ccccc23)n1
42. CCCN(CCC)CC(O)COc1ccc2c(c1)OCO2 (configuration not stated)
43. COc1ccc2cc(C(=O)O)n(CC(=O)c3ccccc3)c2c1
44. COC(=O)c1c(N)[nH]c(C(=O)c2ccccc2)c1-c1ccc(Br)cc1
45. NC(=S)Nc1cnc2ccccc2c1
46. CCN(CC)Cc1cc2ccccc2c2c1COC2
47. CCCCC1SC(N)=NC1=O (configuration not stated)
48. COc1ccc(CC(=O)OCC(=O)NCCNC(=O)COC(=O)Cc2ccc(OC)cc2)cc1
49. CCOc1ccccc1NC(=O)c1ccc(Cl)c(NC(=O)CC(c2ccccc2)c2ccccc2)c1
50. O=C(c1cc2ccccc2oc1=O)N(Cc1ccco1)Cc1cccs1
screen / no.,41,42,43,44,45,46,47,48,49,50
ALR H2O2 inh,1,10,6,x,-8,-21,x,2,-1,-7
FGF22 binding,i,i,i,i,x,x,i,i,x,x
B2AR ag,5,3,0,x,0,-1,1,-1,-12,-3
Ecoli growth,0.73,0.71,0.67,x,0.7,0.7,0.62,0.66,0.71,0.71
UCH37 inh,-2.4,2.9,1.4,x,0.8,0.0,1.1,-2.2,2.9,0.9
HNF4A DNA FP,-3.5,-8.3,0.3,2.0,0.6,-1.1,-2.5,3.0,-0.9,9.0
Ecoli rRNA inh,x,29,15,-13,x,x,17,1,x,x
Ecoli rRNA inh OD600,x,15,9,-22,x,x,16,7,x,x
Ecoli rRNA inh RFP,x,0.7,9.3,-3.9,x,x,1.4,-0.9,x,x

Rewritten with values under each structure: entries from further up.
Value order – ALR H2O2 inh	FGF22 binding	B2AR ag	Ecoli growth	UCH37 inh	HNF4A DNA FP	Ecoli rRNA inh	Ecoli rRNA inh OD600	Ecoli rRNA inh RFP
(41) Cc1cccc(/N=C/c2c(O)n(Cc3ccc4c(c3)OCO4)c(=O)c3ccccc23)n1
→ 1	i	5	0.73	-2.4	-3.5	x	x	x
(48) COc1ccc(CC(=O)OCC(=O)NCCNC(=O)COC(=O)Cc2ccc(OC)cc2)cc1
→ 2	i	-1	0.66	-2.2	3.0	1	7	-0.9
(44) COC(=O)c1c(N)[nH]c(C(=O)c2ccccc2)c1-c1ccc(Br)cc1
→ x	i	x	x	x	2.0	-13	-22	-3.9
